H5N1 CPE – antiviral screen in MDCK cells, H5N1 avian flu | cytopathic effect, luminescence, 72 h; hits give high values; no value below 0 was filed and about half of the inactive calls have no number; reference of the scale not given here | inhibition, % at 50 µM | 0.07% of 96,000 active | AID 740; in the data active = inhibition above about 25%
An asterisk follows results filed as active; i = inactive. This is a subset, so the mix of outcomes need not match the whole.

SMILES | H5N1 CPE
O=C(CCCCn1c(=O)[nH]c2ccsc2c1=O)NCC1CCCO1 (stereo unspecified) | 0.4
Cc1noc(C)c1C(=O)NC(C)C1CCCO1 (stereo unspecified) | 2.9
CCOC(=O)C1=C(CSc2nc(-c3ccncc3)ccc2C#N)OC(N)=C(C#N)C1c1cccnc1 (stereo unspecified) | i
CNC(=O)n1ccc(C(=O)N2CCCCC2)n1 | 0.3
O=C(CSCc1ccc(Cl)cc1)c1ccco1 | i
CCN(C(=O)c1cn(C)c(=O)c2cc(OC)c(OC)cc12)c1ccccc1C | i
O=C(Cn1cnc2c(cnn2-c2ccccc2)c1=O)NC1CCCC1 | 0.2
COc1ccc(Cn2nnnc2CN(Cc2cc3cccc(C)c3[nH]c2=O)C2CCCC2)cc1 | i
CC(Sc1n[nH]c(N)n1)c1nc2scc(-c3cccs3)c2c(=O)[nH]1 (stereo unspecified) | 0.1
CCOC(=O)c1[nH]c2ccc(OC)cc2c1NC(=O)CCN1CCN(Cc2ccccc2)CC1 | i
CCOc1ccc(NC(C)c2cc(Cl)ccc2O)cc1 (stereo unspecified) | i
O=C(c1ccc(=O)[nH]c1)N(Cc1ccco1)C1(C(=O)NC2CCCC2)CCCCC1 | 0.6
O=C(CCN1C(=O)C2C3C=CC(C3)C2C1=O)Nc1c(F)cc(F)cc1Br (stereo unspecified) | 0.3
CC(OC(=O)c1cccs1)C(=O)NCc1ccc2c(c1)OCO2 (stereo unspecified) | i
COCC(=O)Nc1nnc(Cc2ccc(OC)c(OC)c2)s1 | 0.4
CCn1c(SCC(=O)Nc2cccc(C)c2)nc2c(c1=O)SC(C)C2 (stereo unspecified) | 1.6
CCN(CC)S(=O)(=O)c1ccc2c3c(cccc13)C(=O)S2 | 2.5
N#Cc1c(SCC(=O)Nc2nccs2)nc2c(c1-c1ccco1)CCCC2 | i
CCCCN1C(=O)c2ccc(C(=O)Nc3cccnc3)cc2C1=O | i
Cc1nc2ccccc2n1CC(=O)N/N=C\C=C\c1ccccc1 | 1.6
CC(=O)C(Sc1ncnc2c1nnn2-c1ccc(F)cc1)C(=O)N(C)C (stereo unspecified) | 1.0
C=CCn1c(C(C)NC(=O)CC)nc2ccccc21 (stereo unspecified) | 1.6
COc1ccc(NC(=O)CN2C(=O)CC(C)(C)S(=O)(=O)c3ccccc32)cc1 | 1.4
S=c1[nH]nc2c3c4c(sc3ncn12)CCCC4 | i
Cc1cccc(C)c1NC(=O)C(=O)NCc1ccccn1 | 0.6

Later entries
SMILES | H5N1 CPE
CCOC(=O)N1CCN(C(=O)c2cccc(OC)c2OC)CC1 | i
CC1(C)Oc2ccc(C(=O)N3CCCCC3)cc2N(CC(=O)NCc2ccccc2)C1=O | 0.1
CC(=O)c1cccc(N2C(=NC(=O)C(C)C)SC3CS(=O)(=O)CC32)c1 (stereo unspecified) | 0.5
Cc1ccc(-n2nnnc2SCC(N)=O)c(C)c1 | i
CCSc1nc2c(cnn2-c2ccc(C)cc2)c(=O)[nH]1 | 2.6
O=C(CCNS(=O)(=O)c1ccc2c(c1)CCC(=O)N2)Nc1ccc2c(c1)OCCO2 | 1.7
CCSc1nnc(NC(=O)CSc2nccn2-c2cccc(C)c2C)s1 | 1.2
COC(=O)c1sc(NC(=O)C2CCCCC2C(=O)O)c(C(=O)OC)c1C (stereo unspecified) | i
COc1ccc(OC)c(C(=O)c2ccc(C(=O)O)cc2)c1 | i
Cn1c(=O)oc2cc(S(=O)(=O)NCc3ccccn3)ccc21 | 1.9
CCc1ccc(-c2cc(C(=O)NN3CCOCC3)c3ccccc3n2)cc1 | i
O=C(Oc1ccnc2cc(Cl)ccc12)N1CCCCCC1 | 8.0
CC1CCN(C(=S)NC(=O)c2ccccc2)CC1 | 0.2
Cc1ccc2nc(NC(=O)c3ccc4ncsc4c3)sc2c1 | i
O=c1[nH]c(=O)n(Cc2ccccc2)c(O)c1C=Nc1ccc(CN2CCOCC2)cc1 | 1.2
COCCCn1c(SCc2cc(=O)[nH]c3ccccc23)nnc1-c1ccco1 | 0.5
Cc1c(C(=O)O)[nH]c2c1C(=O)CC(c1ccccc1)C2 (stereo unspecified) | i
C=CCOn1c(=O)c(=O)n(OCc2ccccc2)c2ccccc21 | 0.9
COc1ccc(C(=O)Nc2ccc(S(=O)(=O)Nc3nccnc3OC)cc2)cc1OC | 0.2
O=C(NCc1cccnc1)C1c2ccccc2C(=O)N1Cc1ccco1 (stereo unspecified) | i
O=c1cc(N2CCc3ccccc3C2)[nH]c(=O)n1-c1ccccc1Cl | i
CCn1c(N2CCN(CC(=O)Nc3cccc(C)c3C)CC2)nc2ccccc21 | i
O=c1c(/C=N/O)coc2ccc3ccccc3c12 | 1.1
O=C(C1CCN(S(=O)(=O)c2cnc[nH]2)CC1)N1CCN(c2ncccn2)CC1 | i
O=C(NCCNc1ccc([N+](=O)[O-])cc1C(F)(F)F)c1ccccc1F | i

(continued)
SMILES | H5N1 CPE
COCCN1C=C(C(=O)OC)C(c2ccc(OC)c(OC)c2)C(C(=O)OC)=C1 | 2.4
COc1ccc(N2C(=O)CCC(C(=O)Nc3cccc(C)n3)C2c2ccc(OC)c(OC)c2)cc1 (stereo unspecified) | i
COc1cc([N+](=O)[O-])ccc1NC(=O)CCCOc1cccc(C)c1 | 1.1
COc1ccc(-c2noc(CCC(=O)Nc3ccc(C)c(C)c3)n2)cc1 | i
Cc1ccc2oc(=O)c3cnn(CC(=O)NCCCOC(C)C)c3c2c1 | 1.0
COc1ccc(C2C(C#N)=C(N)Oc3c2c(=O)oc2ccccc32)cc1Cn1cc([N+](=O)[O-])cn1 (stereo unspecified) | 0.6
CN(C)c1ccc(NC(=O)CSc2nc(N)c(C(=O)Nc3ccc(N(C)C)cc3)s2)cc1 | i
O=C1C=C(c2ccccc2)C(O)(c2ccccc2)C1 (stereo unspecified) | 0.7
CCc1c(C)nc(SCCOc2ccc(OC(C)C)cc2)[nH]c1=O | 0.6
COc1ccc(C(c2nnnn2C(C)(C)C)N2CCN(C)CC2)cc1OC (stereo unspecified) | i
CC1(C)Cc2c(C#N)c(N3CCN(C(=O)c4ccco4)CC3)nc(Cc3ccccc3)c2CO1 | 2.7
CC1=C(C(=O)Nc2ccccc2)SCCO1 | i
CC1(C)CC(=O)c2sc(NC(=O)CN3C(=O)CCC3=O)nc2C1 | 0.6
CCCn1c2ccccc2c2nnc(SCC(=O)Nc3cc(C)on3)nc21 | i
CC(OC(=O)c1cc2sccc2n1C)C(=O)NCc1ccc2c(c1)OCO2 (stereo unspecified) | i
O=C(Nc1cccnc1)c1cccs1 | 4.8
COC(=O)c1c(NC(=O)CN2CCN(c3ccccc3)CC2)c2c(C)cccc2n1C | 2.2
Cc1ccc(CNC(=O)CCCC(=O)O)cc1 | i
N#C/C(=C1\CCCN1)c1ccc2ccccc2n1 | 7.2
Cc1ccccc1NC(=O)CSc1nnc(-c2ccccc2)n1-c1ccccc1 | 1.4
COc1cccc(C(=O)C2CN(c3ccccc3)CC2c2ccc(Cl)cc2)c1 (stereo unspecified) | 0.6
CCOc1ccc(S(=O)(=O)n2nnc3ccccc32)cc1C(C)C | 0.6
CC1CCN(c2nc3ccccc3nc2N2CCC(C)CC2)CC1 | i
COc1cc(/C=N/n2cnnc2)ccc1OC(=O)c1ccncc1 | 1.4
O=C(NCc1ccco1)c1ccccc1-c1ccccc1 | 3.9

(further entries)
SMILES | H5N1 CPE
CC(C)c1ccc(-c2nc(N3CCCCC3)[nH]c(=O)c2C#N)cc1 | 0.6
Cc1cnc(NC(=O)c2ccco2)s1 | 3.4
Cc1ccc(OCC(=O)N2CCC(N3CCCCCC3)CC2)cc1 | i
CN(C)C(=O)CSc1nnc(C23CC4CC(CC(C4)C2)C3)o1 | 3.4
Cc1cc(NC(=O)CSc2cn(CCNC(=O)c3ccccc3)c3ccccc23)no1 | 1.4
COc1ccc(-n2c(SCC(N)=O)nc3nc4c(cc3c2=O)COC(C)(C)C4)cc1 | i
COc1ccc(NC(=O)CN2CCN(C3c4ccccc4-c4ccccc43)CC2)c(OC)c1 | 3.8
CC1(C)CC(=O)c2cc(OCC(=O)N3CCOCC3)ccc2O1 | 0.7
Cc1ccc(S(=O)(=O)Cn2nnnc2CN(Cc2ccco2)Cc2cccs2)cc1 | i
Cc1cccc(C)c1OCC(=O)Nc1cccc(NC(=O)c2ccco2)c1 | i
Cc1ccc(Cl)cc1N1CCN(C(CC(C)C)c2nnnn2CC2CCCO2)CC1 (stereo unspecified) | i
CCCN(CCC)c1nc2ccccc2nc1C(C#N)C(=O)OC(C)COC (stereo unspecified) | 0.3
CCc1ccccc1NC(=O)CCN1C(=O)c2ccccc2C1=O | 0.4
O=C(O)C1C2C=CC(C2)C1C(=O)OCc1ccccc1 (stereo unspecified) | i
O=C(CCc1nc2cccnc2n1Cc1ccccc1)N1CCOCC1 | 0.1
COc1ccc2c(c1)C(=O)N(c1ccccc1OC)C(=O)C2(C)C | 1.0
O=C(Nc1cc2c(oc1=O)CCCC2=O)c1ccccc1 | 0.5
O=C1CC(c2ccco2)CC(O)=C1C=Nc1ccc(Br)cc1 (stereo unspecified) | i
CC(=O)CSc1nc2ccccc2s1 | i
CCn1c(C(=O)N2CCc3ccccc3C2)cc2oc3ccccc3c21 | i
CS(=O)(=O)NC1c2cccc3cccc(c23)C1N1CCOCC1 (stereo unspecified) | 1.7
CCCn1c(NC(=O)c2ccc(Br)cc2)nc2ccccc21 | i
CCCc1cc2c(c(NC(C)=O)n1)c(=O)oc1ccccc12 | 0.5
CCOC(=O)Cc1cc(=O)[nH]c(/N=C(\N)Nc2ccc(C)cc2C)n1 | i
Cc1cc2c(c(=O)o1)C(C13C=CC(CC1)C3)C(C#N)=C(N)O2 (stereo unspecified) | 0.4

More entries
SMILES | H5N1 CPE
CCCCN(C)/C=N/c1c(C#N)cnn1-c1ccc(C)cc1 | 5.0
CC1(C)CC2(CCO1)N1CC3(C)CN2CC(C)(C1)C3O (stereo unspecified) | 0.6
O=C(NCc1ccco1)C1CC(c2cccc([N+](=O)[O-])c2)=NO1 (stereo unspecified) | 0.6
CCOc1ccc(-c2nnn(CC(=O)Nc3cccc(OC)c3)n2)cc1OCC | i
Cc1nc(C)n(CC(O)COc2ccc3ccccc3c2)n1 (stereo unspecified) | 0.7
CCn1cnc2c1c(=O)n(CC(=O)Nc1ccc3c(c1)OC(F)(F)O3)c(=O)n2Cc1ccccc1 | i
CC(C)CCNC(=O)C(c1ccco1)N(C(=O)Cn1nnc2ccccc21)c1ccc2c(c1)OCO2 (stereo unspecified) | i
CCn1c(CNC(=O)C23CC4CC(CC(C4)C2)C3)nnc1SCC(=O)Nc1nnc(C)s1 | 1.4
O=C(Nc1cc(C(F)(F)F)ccc1N1CCCC1)c1cccnc1 | 0.4
CC1CCCCN1CC(=O)c1ccc2cc[nH]c2c1 (stereo unspecified) | 0.8
CC(Oc1ccc(Cl)cc1Cl)C(=O)NCCCN1CCOCC1 (stereo unspecified) | i
COc1ccccc1CC(=O)O/N=C(\N)Cc1cccc2ccccc12 | 1.4
CCC(=O)N1CCc2cc(S(=O)(=O)N3CCN(C(=O)c4ccco4)CC3)ccc21 | 1.3
CCCOC(=O)c1ccc(Oc2cn[nH]c2-c2ccc(OC)cc2O)cc1 | 0.1
CCCCCSc1nnc2c(n1)OC(C)N(C(C)=O)c1ccccc1-2 (stereo unspecified) | 1.4
CC(NC(=O)Nc1ccccn1)N1C(=O)C2C3C=CC(C3)C2C1=O (stereo unspecified) | 1.3
O=C(COC(=O)C1(c2ccccc2F)CCCC1)NC1CCS(=O)(=O)C1 (stereo unspecified) | 1.5
CN(C)C=NC1=NN(c2cccc(C(F)(F)F)c2)CC1 | 1.8
CC(=O)N1CCc2cc(C(=O)CN3CCCCC3)ccc21 | 1.0
CNC(=O)C1CC(=O)N(c2ccc(F)c(Cl)c2)C1 (stereo unspecified) | 0.5
COC(=O)C1=C(C)N(C(C)C)C(=O)C1(NC(=O)C1CCCCC1)C(F)(F)F (stereo unspecified) | i
O=C(Nn1cc(C(=O)N2CCN(c3ccccc3F)CC2)c2ccccc2c1=O)c1cnccn1 | 1.6
CCCN(c1ccc(C(C)C)cc1)S(=O)(=O)c1c(C)[nH]c(=O)[nH]c1=O | i
Cn1c(NC(=O)c2ccccc2F)cc(=O)n(C)c1=O | i
CCOC(=O)C(Cc1ccccc1)C(=O)Nc1nccs1 (stereo unspecified) | 2.1
Cc1nc2ccc(NS(=O)(=O)c3ccc4c(c3)OCCO4)cc2s1 | i
Cc1cccn2c(=O)c3cc(C#N)c(=NC(=O)c4ccncc4)n(CCCOC(C)C)c3nc12 | 7.9
COC(=O)c1ccccc1NC(=O)c1cccc(COc2ccccc2Cl)c1 | i

19 entries from above in a different format:
mol	H5N1 CPE
CC1CCCCN1CC(=O)c1ccc2cc[nH]c2c1 (stereo unspecified)	0.8
CC(Oc1ccc(Cl)cc1Cl)C(=O)NCCCN1CCOCC1 (stereo unspecified)	i
COc1ccccc1CC(=O)O/N=C(\N)Cc1cccc2ccccc12	1.4
CCC(=O)N1CCc2cc(S(=O)(=O)N3CCN(C(=O)c4ccco4)CC3)ccc21	1.3
CCCOC(=O)c1ccc(Oc2cn[nH]c2-c2ccc(OC)cc2O)cc1	0.1
CCCCCSc1nnc2c(n1)OC(C)N(C(C)=O)c1ccccc1-2 (stereo unspecified)	1.4
CC(NC(=O)Nc1ccccn1)N1C(=O)C2C3C=CC(C3)C2C1=O (stereo unspecified)	1.3
O=C(COC(=O)C1(c2ccccc2F)CCCC1)NC1CCS(=O)(=O)C1 (stereo unspecified)	1.5
CN(C)C=NC1=NN(c2cccc(C(F)(F)F)c2)CC1	1.8
CC(=O)N1CCc2cc(C(=O)CN3CCCCC3)ccc21	1.0
CNC(=O)C1CC(=O)N(c2ccc(F)c(Cl)c2)C1 (stereo unspecified)	0.5
COC(=O)C1=C(C)N(C(C)C)C(=O)C1(NC(=O)C1CCCCC1)C(F)(F)F (stereo unspecified)	i
O=C(Nn1cc(C(=O)N2CCN(c3ccccc3F)CC2)c2ccccc2c1=O)c1cnccn1	1.6
CCCN(c1ccc(C(C)C)cc1)S(=O)(=O)c1c(C)[nH]c(=O)[nH]c1=O	i
Cn1c(NC(=O)c2ccccc2F)cc(=O)n(C)c1=O	i
CCOC(=O)C(Cc1ccccc1)C(=O)Nc1nccs1 (stereo unspecified)	2.1
Cc1nc2ccc(NS(=O)(=O)c3ccc4c(c3)OCCO4)cc2s1	i
Cc1cccn2c(=O)c3cc(C#N)c(=NC(=O)c4ccncc4)n(CCCOC(C)C)c3nc12	7.9
COC(=O)c1ccccc1NC(=O)c1cccc(COc2ccccc2Cl)c1	i

Assay outcomes: PubChem, SRMLSC
